Polio RdRp inh: poliovirus RdRp elongation inhibitors, primary screen, biochemical, fluorescence polarization, total intensity; Genome polyprotein (Poliovirus type 1 (strain Mahoney)), P03300; poliovirus polymerase elongation; hits give low values; % elongation, % (compound at 16.7 µg/mL); actives 0.66% (n = 150,000); in the data active = % elongation below about 90%; also: some results filed as inactive read as strong as hits
Target sequence (P03300 1749-2209 limits assumed): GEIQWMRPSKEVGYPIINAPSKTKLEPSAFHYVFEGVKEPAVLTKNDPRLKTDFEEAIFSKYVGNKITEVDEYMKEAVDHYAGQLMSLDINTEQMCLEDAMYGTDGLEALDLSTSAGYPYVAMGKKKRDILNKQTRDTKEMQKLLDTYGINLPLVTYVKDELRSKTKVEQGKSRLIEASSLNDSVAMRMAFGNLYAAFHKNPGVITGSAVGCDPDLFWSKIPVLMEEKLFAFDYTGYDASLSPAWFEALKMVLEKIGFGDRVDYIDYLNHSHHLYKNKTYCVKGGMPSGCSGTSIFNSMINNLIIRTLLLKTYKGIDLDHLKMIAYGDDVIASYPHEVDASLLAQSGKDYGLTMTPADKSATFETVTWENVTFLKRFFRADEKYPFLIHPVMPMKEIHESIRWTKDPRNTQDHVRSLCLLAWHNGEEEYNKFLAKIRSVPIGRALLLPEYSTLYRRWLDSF
Mtb MbtI inh: MbtI salicylate synthase inhibitors, primary screen, biochemical, fluorescence intensity; purified MbtI enzyme, fluorescence intensity read-out; actives 0.89% (n = 100,000); AID 493033, 2011; inhibition, %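 (about 17 µg/mL by stock and volumes)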;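 active = above 50% in both replicates, above 80% if mildly self-fluorescent; inactive = the rest, strongly fluorescent compounds included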;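 also: 0% = mean of negative and 100% = mean of positive controls; one replicate is shown; some compounds called inactive have numbers as strong as hits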
MenB inh: M. tuberculosis MenB inhibitors, primary screen, biochemical, absorbance | 1,4-dihydroxy-2-naphthoyl-CoA synthase (Mycobacterium tuberculosis (strain ATCC 25618 / … | AID 540299, 2011 | MenB enzyme assay, absorbance read-out; some hits fall short of the stated cut | inhibition, %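 (about 12 µg/mL by stock and volumes)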 | actives 0.43% (n = 100,000);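 active = mean of two replicates above 30%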;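 also: 0% = no compound and 100% = wells with inactive enzyme; the first replicate is given; strong numbers were not always called active; inactives centre near -10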
Target sequence (P9WNP5 whole entry, looked up): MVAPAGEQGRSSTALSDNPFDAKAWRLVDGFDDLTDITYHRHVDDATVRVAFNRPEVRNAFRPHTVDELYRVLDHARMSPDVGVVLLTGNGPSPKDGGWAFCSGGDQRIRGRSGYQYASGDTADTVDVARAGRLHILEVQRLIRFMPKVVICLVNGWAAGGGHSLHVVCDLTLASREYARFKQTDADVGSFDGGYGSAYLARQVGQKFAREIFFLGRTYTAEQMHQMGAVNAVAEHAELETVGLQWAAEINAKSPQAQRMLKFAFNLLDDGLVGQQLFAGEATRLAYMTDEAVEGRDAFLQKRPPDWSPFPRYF
Polio RdRp inh intensity: further read-out of Polio RdRp inh, marked with its call; % elongation; measured here: total intensity read-out; formula for this scale not given here;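 total fluorescence in place of polarization; lower means less elongation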
* marks the source's active call; other numbers are inactive results; / = not tested or not shown.

SMILES | Polio RdRp inh | Polio RdRp inh intensity | Mtb MbtI inh | MenB inh
CC1=CCC(C(=O)O)C(C(=O)NC2CCCCC2)C1 (stereo unspecified) | 99 | 94 | / | -7
COc1ccc(CNC(=O)CSc2nc(C)cc(=O)[nH]2)cc1 | 104 | 108 | -1 | -13
C=CCOC(=O)C1=C(C)NC(SC)=C(C#N)C1c1ccccc1OC (stereo unspecified) | 99 | 105 | 0 | -15
Cc1nn(-c2ccccc2)c2c1C(c1cccnc1)C1=C(CC(C)(C)CC1=O)N2 (stereo unspecified) | 100 | 110 | -66 | -2
COc1cccc(C=C2C(=O)N(C)C(=S)N(C)C2=O)c1OC | 95 | 100 | 93* | -76
CCOc1ccc(Nc2nc3ccccc3nc2Nc2ccc(OCC)cc2)cc1 | 101 | 106 | 29 | -9
CCOC(=O)C1=C(C)N=C(SC)N(C(C)=O)C1c1ccccc1 (stereo unspecified) | 100 | 101 | -4 | -13
Cc1ccc2c(c1)-c1c(cnn1CC(=O)Nc1ccc3c(C)cc(=O)oc3c1)CO2 | 101 | 104 | 4 | 3
CN1CCN(CCOc2ccccc2)CC1 | 101 | 106 | / | 6
O=C(CN1CCN(c2ncnc3sc(-c4ccccc4)cc23)CC1)N1CCCC1 | 107 | 109 | -30 | -11
CC1CC(C)(C)NC(=S)N1CC(=O)N1CCN(Cc2ccccc2)CC1 (stereo unspecified) | 100 | 102 | -13 | -3
Cc1ccc(S(=O)(=O)N(C)C(F)F)cc1 | 100 | 101 | -5 | 1
C#CCOC(=O)Nc1c(-c2ccccc2)noc1C | 103 | 102 | 1 | 4
O=C(Nc1ccccc1)c1ccc2c(c1)OCCO2 | 104 | 101 | -1 | -1
O=C(CN1CCN(Cc2ccc3c(c2)OCO3)CC1)N1c2ccccc2CCc2ccccc21 | 98 | 102 | -5 | 15
O=C(CSCCCn1c(=O)[nH]c2ccccc21)N1CCc2ccccc21 | 101 | 105 | -5 | -17
CCN(CC(=O)Nc1ccc(C#N)cc1)CC(=O)Nc1ccc2c(c1)OCCO2 | / | / | 2 | -1
O=C1CC(CSc2nccc(-c3cccnc3)n2)=NN1c1ccc(Cl)cc1 | 107 | 105 | -4 | -23
CCOC(=O)N1CCC(N2C(=O)c3ccc(C(=O)Nc4ccc(OC)cc4)cc3C2=O)CC1 | 101 | 102 | -5 | -12
COCSC1=NC(c2ccc(SC)cc2)C(C(=O)OC(C)C)=C(C)N1 (stereo unspecified) | 103 | 103 | 11 | -27
Cn1ccnc1C(=O)c1cc(=S)[nH]c2ccccc12 | 96 | 99 | 38 | -183
CC(C(=O)Nc1ccc(C#N)cc1)N1CCN(c2ccc(O)cc2)CC1 (stereo unspecified) | 100 | 105 | 35 | -26
CC(=O)OC1CCC(OC(C)=O)c2c1n([O-])c(C)c(C)[n+]2=O (stereo unspecified) | 97 | 101 | 17 | -15
O=C(/C=C/c1ccccn1)NC(Cc1c[nH]c2ccccc12)C(=O)O (stereo unspecified) | 106 | 108 | / | -61
Cc1c(C)n(CC(O)CNCc2ccccc2)c2ccccc12 (stereo unspecified) | 100 | 95 | / | 2
Cc1noc(C)c1C(=O)n1cc2c(n1)-c1cc(F)ccc1SC2 | 104 | 111 | 7 | -17
Cc1[nH]c(-c2ccc(F)cc2)cc1C(=O)NC1CCCCC1 | 101 | 102 | -3 | -12
CCN1C(=S)SC(=O)C1=C1C=C(C)OC(C)=C1 | 96 | 103 | 20 | -22
COCCn1c(-c2ccccc2)nc(=S)c2c1CCCC2 | 100 | 103 | 12 | -2
C=CC[N+]1(CC=C)CCOCC1 | 103 | 100 | -9 | -23

Part of the list above, as a markdown table.
| SMILES | Polio RdRp inh | Polio RdRp inh intensity | Mtb MbtI inh | MenB inh |
| --- | --- | --- | --- | --- |
| C=CCOC(=O)C1=C(C)NC(SC)=C(C#N)C1c1ccccc1OC (stereo unspecified) | 99 | 105 | 0 | -15 |
| Cc1nn(-c2ccccc2)c2c1C(c1cccnc1)C1=C(CC(C)(C)CC1=O)N2 (stereo unspecified) | 100 | 110 | -66 | -2 |
| COc1cccc(C=C2C(=O)N(C)C(=S)N(C)C2=O)c1OC | 95 | 100 | 93* | -76 |

In another format: entries from further up.
compound,Polio RdRp inh,Polio RdRp inh intensity,Mtb MbtI inh,MenB inh
O=C(CN1CCN(c2ncnc3sc(-c4ccccc4)cc23)CC1)N1CCCC1,107,109,-30,-11
CC1CC(C)(C)NC(=S)N1CC(=O)N1CCN(Cc2ccccc2)CC1 (stereo unspecified),100,102,-13,-3
Cc1ccc(S(=O)(=O)N(C)C(F)F)cc1,100,101,-5,1
C#CCOC(=O)Nc1c(-c2ccccc2)noc1C,103,102,1,4
O=C(Nc1ccccc1)c1ccc2c(c1)OCCO2,104,101,-1,-1
O=C(CN1CCN(Cc2ccc3c(c2)OCO3)CC1)N1c2ccccc2CCc2ccccc21,98,102,-5,15
O=C(CSCCCn1c(=O)[nH]c2ccccc21)N1CCc2ccccc21,101,105,-5,-17
CCN(CC(=O)Nc1ccc(C#N)cc1)CC(=O)Nc1ccc2c(c1)OCCO2,/,/,2,-1
O=C1CC(CSc2nccc(-c3cccnc3)n2)=NN1c1ccc(Cl)cc1,107,105,-4,-23
CCOC(=O)N1CCC(N2C(=O)c3ccc(C(=O)Nc4ccc(OC)cc4)cc3C2=O)CC1,101,102,-5,-12
COCSC1=NC(c2ccc(SC)cc2)C(C(=O)OC(C)C)=C(C)N1 (stereo unspecified),103,103,11,-27
Cn1ccnc1C(=O)c1cc(=S)[nH]c2ccccc12,96,99,38,-183
CC(C(=O)Nc1ccc(C#N)cc1)N1CCN(c2ccc(O)cc2)CC1 (stereo unspecified),100,105,35,-26
CC(=O)OC1CCC(OC(C)=O)c2c1n([O-])c(C)c(C)[n+]2=O (stereo unspecified),97,101,17,-15
O=C(/C=C/c1ccccn1)NC(Cc1c[nH]c2ccccc12)C(=O)O (stereo unspecified),106,108,/,-61
Cc1c(C)n(CC(O)CNCc2ccccc2)c2ccccc12 (stereo unspecified),100,95,/,2
Cc1noc(C)c1C(=O)n1cc2c(n1)-c1cc(F)ccc1SC2,104,111,7,-17
Cc1[nH]c(-c2ccc(F)cc2)cc1C(=O)NC1CCCCC1,101,102,-3,-12

Next section.
SMILES | Polio RdRp inh | Polio RdRp inh intensity | Mtb MbtI inh | MenB inh
CN(CCc1ccccn1)c1ncnc2sccc12 | 114 | 122 | -8 | -22
Cc1nc(-c2ccc(S(=O)(=O)N3CCCN(CCc4ccccc4)CC3)s2)cs1 | 99 | 102 | -1 | 0
OCC1OC(Oc2ccc(O)cc2)C(O)C(O)C1O (stereo unspecified) | 101 | 102 | 2 | -17
CC(=O)Nc1ccc(SCC(=O)NC(=O)NC2CCCCC2)cc1 | 101 | 91 | -7 | -31
Cn1c(=O)c2c(nc3n2Cc2c(Cl)cccc2N3CCNC(=O)C2CCC2)n(C)c1=O | 102 | 102 | 1 | 33
CN(C)/N=C/c1ccc(C2(O)C(=O)NC(=O)NC2=O)o1 | 105 | 102 | -4 | -12
CCCCCn1c(-c2ccccc2)nc2ccccc21 | 98 | 101 | 101 | -14
Cc1cccn2cc(CNC(=O)C(C)(C)C)nc12 | 100 | 100 | 104 | 1
COc1cccc2cc(C(N)=O)/c(=N/NS(=O)(=O)c3ccc(C)cc3)oc12 | 103 | 102 | 7 | -32
Cc1ccc(NC(=O)c2ccco2)nc1 | 103 | 104 | 22 | -16
CC1CCCCN1C(=O)c1ccccc1NC(=O)c1ccco1 (stereo unspecified) | 99 | 105 | 10 | 23
Cc1nc(NC2=NCN(Cc3ccccc3)CN2)nc2ccccc12 | 101 | 107 | -3 | -22
CN(Cc1cccs1)C(=O)Cc1c[nH]c2ccccc12 | 101 | 100 | 4 | -32
COc1cccc(-c2cc(C(=O)NCCc3ccccc3)[nH]n2)c1 | 106 | 108 | -7 | -12
O=C(NC(=S)N1CCN(Cc2ccccc2)CC1)C1CCCCC1 | 100 | 99 | 15 | -4
C=CCn1c(C)c2cc(Cl)c(Cl)cc2[n+]1C | 102 | 99 | 8 | -4
Cc1cccc2nc(-c3ccc(N(C)C)cc3)c(NCCC(C)C)n12 | 100 | 103 | 17 | -103
CCNC(=O)C1CN(S(=O)(=O)c2ccccc2)CCN1S(=O)(=O)c1ccccc1 (stereo unspecified) | 100 | 100 | 17 | -5
O=C(CC1SC(=NC2CC2)NC1=O)Nc1cc(C(F)(F)F)ccc1Cl (stereo unspecified) | 102 | 107 | -12 | -10
O=C1CN(C(=O)c2ccccc2)C(=O)CN1C(=O)c1ccccc1 | 97 | 104 | -15 | -87
S=C1C=C(N2CCCCC2)CC(c2ccc(Cl)cc2)S1 (stereo unspecified) | 102 | 109 | 9 | -37
O=C1CCCN1CCNC(=S)Nc1ccccc1 | 104 | 103 | 4 | -17
CC1CCC(N2CCCC(CO)C2)CC1 (stereo unspecified) | 98 | 102 | -8 | -20
CCc1cc(SC/C(O)=C(\C#N)c2nc3ccccc3[nH]2)n2c(nc3ccccc32)c1C#N | 100 | 113 | 22 | -19
Cc1oc(CSCCSCc2cc(C(=O)O)c(C)o2)cc1C(=O)O | 105 | 103 | -6 | -27
COc1cc(SC)ccc1C(=O)OCC(=O)N(C)C1(C#N)CCCCC1 | 99 | 105 | 14 | -11
CN(C)c1ccc(CN2CCN(Cc3ccccc3)CC2)cc1 | 100 | 102 | -9 | -25
COc1ccc(C=Nc2ccc(C(C)(C)C)cc2)cc1 | 105 | 104 | -8 | -5
CC(NCc1ccc(F)cc1)C12CC3CC(CC(C3)C1)C2 (stereo unspecified) | 102 | 100 | -11 | -20
Clc1ccc(OCCn2ccnc2)c(Br)c1 | 101 | 102 | -12 | -2
COc1cc(NC(C)C(=O)N2CC(C)CC(C)C2)c(OC)cc1Cl (stereo unspecified) | 103 | 110 | -2 | -18
COc1c(F)c(F)c(C(=O)Nc2ccc(-c3nc4ccccc4o3)cc2)c(F)c1F | 102 | 102 | -30 | -17
CC1(C)CC(=O)C2=C(C1)N(c1ccc(S(N)(=O)=O)cc1)C(N)=C(C#N)C2c1ccco1 (stereo unspecified) | 103 | 102 | 13 | -19
O=C(Nc1c[nH]c(=O)[nH]c1=O)C1CCCO1 (stereo unspecified) | 104 | 101 | 4 | -72
c1ccc2c(c1)CNC(c1ccc3c(c1)OCO3)c1cccn1-2 (stereo unspecified) | 105 | 103 | / | -12
O=c1ccc(-c2ccc(S(=O)(=O)NCCc3ccccc3)s2)n[nH]1 | 102 | 101 | 14 | -34
O=C(COC(=O)c1ccc(CO)cc1)Nc1ccccc1 | 103 | 107 | 1 | 9
CCCCN(S(=O)(=O)c1ccccc1)S(=O)(=O)c1ccccc1 | 104 | 104 | 0 | -76
CCOc1ccc(NC(=O)C2CC(=O)OC2c2ccccc2)cc1 (stereo unspecified) | 100 | 99 | -19 | 4
CC(COc1nnc(-c2cccs2)o1)NC(=O)Cn1nnc2ccccc2c1=O (stereo unspecified) | 102 | 101 | -3 | 0
NS(=O)(=O)c1ccc(NC(=O)N2CCCCC2)cc1 | 102 | 102 | -11 | -53
CCc1c(C)nc2cc(-c3cc(OC)cc(OC)c3)nn2c1NCCCN(CC)CC | 100 | 101 | 2 | 16
CCOc1cc(/C=C2\COc3ccccc3C2=O)ccc1OCC(=O)N(C)C | 98 | 98 | 24 | -58
CCN1C(=O)CC(NC2CCN(C(=O)c3cccs3)CC2)C1=O (stereo unspecified) | 101 | 100 | -22 | -5
O=C(OCC(=O)N1CCN(S(=O)(=O)c2ccccc2)CC1)C1CCCCC1 | 105 | 111 | -6 | -16
CC/C(=N/O)C(=O)c1ccc(Br)cc1 | 101 | 93 | / | -26
COCCn1cnnc1SCC(=O)O | 104 | 97 | 2 | 6
COC(=O)Cc1ccc(C#N)n1C | 103 | 108 | -11 | /
CC(C)NC(=O)COc1ccc(-c2ccccc2)cc1 | 102 | 99 | -1 | /
CC(C)(CO)N=Cc1c(O)[nH]c2ccccc12 | 100 | 101 | -1 | -17

Screening data deposited in PubChem by ICCB-Longwood Screening Facility, Harvard Medical School.
